PINK1 expr mod: changes PINK1 expression | Potency, µM (titrated, usually from 76.6 µM), without a hit: at the top dose activation (PINK1 increase), hits mostly activators | PINK1 immunofluorescence, high-content cytometry, 24 h | 410,000 tested, 0.2% active; active = well fitted activation curve with a large enough effect; inconclusive = small, poorly fitted or top-dose-only effect; inactive = flat fitted curve, though single readings scatter; cell line not stated here;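 note: potency is the fitted concentration of half-maximal effect; % of control where 0% means no effect; nearly all actives have a fitted effect of over 65% in size; a mitochondrial uncoupler was the plate control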
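PINK1 protein level read as immunofluorescence by microplate cytometer in a fixed, stained stable cell line after 24 h exposure to five compound concentrations, with CCCP as control.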
Six1-Eya2 blk: Six1/Eya2 interaction inhibition; Q15475+O00167; AlphaScreen GST-Six1/His-Eya2 binding, biochemical; active compounds read low; control for the full effect not named in the record; activity change, % (test concentration not listed); 360,000 tested, 0.56% active; in the data active = activity change below about -65%; inconclusive = about -30% to -65%; inactive = above about -30%; note: % is set by controls: 0 for no effect and ±100 for the full control effect
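Six1/Eya2 binding was read as AlphaScreen signal after compounds were pinned into GST-Six1 plus His-tagged Eya2 (5X stock 250/500 nM) in pH 8.0 Tris/NaCl/TCEP buffer, beads added, then incubated 1 h, 37 C, dark.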
D2 agonist: agonists of human D2 dopamine receptor (beta-arrestin). 360,000 tested, 0.084% active. AID 624465. DiscoveRx PathHunter D2 beta-arrestin, luminescence, 90 min; 100% = 57 uM dopamine signal. activation, % (test concentration not listed); in the data active = activation above about 40%; inconclusive = about 15% to 40%; inactive = below about 15%; note: compound concentration not given in the record; the text of the record calls up to 30% inactive
Target sequence (P14416 whole entry, looked up): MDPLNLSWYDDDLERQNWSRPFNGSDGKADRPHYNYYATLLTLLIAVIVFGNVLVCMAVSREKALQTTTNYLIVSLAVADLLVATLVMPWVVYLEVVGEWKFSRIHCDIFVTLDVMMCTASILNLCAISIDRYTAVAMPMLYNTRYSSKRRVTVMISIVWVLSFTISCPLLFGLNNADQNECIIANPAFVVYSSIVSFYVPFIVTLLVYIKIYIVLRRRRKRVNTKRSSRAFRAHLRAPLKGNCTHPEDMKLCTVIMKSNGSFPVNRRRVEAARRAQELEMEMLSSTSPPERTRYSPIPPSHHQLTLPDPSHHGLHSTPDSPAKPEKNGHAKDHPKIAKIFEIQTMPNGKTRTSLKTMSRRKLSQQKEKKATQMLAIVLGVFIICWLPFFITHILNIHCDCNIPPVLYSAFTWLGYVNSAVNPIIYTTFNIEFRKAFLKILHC
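Agonist mode: compounds alone added to overnight-plated D2 PathHunter cells for 90 min at 37 C, with 57 uM final dopamine (EC100) defining full response. Beta-arrestin recruitment detected by chemiluminescent reagent, read after 1 h at ambient temperature.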
D2 potentiator: positive allosteric modulators of human D2 dopamine receptor. potentiation, % (no concentration beside the values). 360,000 tested, 0.23% active. P14416. DiscoveRx D2 beta-arrestin cells, luminescence, 90 min; 100% = 57 uM dopamine signal. AID 624464; active = potentiation of 50% or more; inconclusive = 30% to 50%; inactive = 30% or less;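 note: compound concentration not given in the record; tested on top of an EC20 dose of dopamine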
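PathHunter D2 cells, attached overnight at 37 deg C, received compound in DMSO plus dopamine at EC20 (50 nM final) for 90 min at 37 deg C. Beta-arrestin recruitment was read as luminescence after 1 h with detection reagent at ambient temperature.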
TRPML1 agonist: agonists of human TRPML1 channel. Q9GZU1. TRPML1-expressing cells, Ca2+ dye fluorescence, FDSS; host cell line not named in the record; reference of the full effect not given here. activation, % (test concentration not listed). 410,000 tested, 0.12% active. AID 624414; in the data active = activation above about 50%; inconclusive = about 30% to 50%; inactive = below about 30%; note: 0% is about no effect; the text of the record puts the active cut at 80%
Target sequence (Q9GZU1 whole entry, looked up): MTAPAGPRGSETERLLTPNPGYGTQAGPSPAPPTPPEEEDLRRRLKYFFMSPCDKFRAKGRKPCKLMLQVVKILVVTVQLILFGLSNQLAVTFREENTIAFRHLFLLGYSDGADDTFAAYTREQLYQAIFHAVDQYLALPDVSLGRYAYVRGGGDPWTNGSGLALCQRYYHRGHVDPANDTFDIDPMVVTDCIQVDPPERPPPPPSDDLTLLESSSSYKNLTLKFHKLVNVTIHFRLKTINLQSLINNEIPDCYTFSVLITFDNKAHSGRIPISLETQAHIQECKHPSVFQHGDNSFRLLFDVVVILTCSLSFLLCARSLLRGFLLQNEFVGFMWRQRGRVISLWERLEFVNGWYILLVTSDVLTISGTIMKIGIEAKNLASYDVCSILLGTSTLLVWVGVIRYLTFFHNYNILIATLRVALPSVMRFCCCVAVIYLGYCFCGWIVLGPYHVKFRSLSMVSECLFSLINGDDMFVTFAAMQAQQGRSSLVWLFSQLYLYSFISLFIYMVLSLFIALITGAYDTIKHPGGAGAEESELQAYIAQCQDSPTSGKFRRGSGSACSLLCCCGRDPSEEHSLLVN
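Cells: TRPML1-DL, 1X Tet inducer, ~16 h at 37 degrees C/5% CO2. Dye: ABD Ca8 no-wash + quencher, 45-90 min RT. Read: 10 s baseline, compound add, 110 s agonist phase; 54-4 EC80 (4uM final), 110 s antagonist phase.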
TRPML1 inh: human mucolipin-1 channel inhibition; Q9GZU1; 390,000 tested, 0.02% active; AID 624415; TRPML1-inducible cells, Ca2+ dye fluorescence, FDSS; active compounds read low; inhibition of EC80 agonist-evoked calcium signal; activity change, negative = inhibition, % (concentration not given with the values); in the data active means activity change below about -50%; inconclusive means about -30% to -50%; inactive means above about -30%;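 note: stimulus is agonist 54-4 at its EC80 concentration; % is set by controls: 0 for no effect and ±100 for the full control effect; the text of the record puts the active cut at -80%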
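TRPML1-DL cells, Tet-induced overnight (~16 h, 37 °C) at 1,500 cells/well, were loaded with Ca8 no-wash dye plus quencher for 45-90 min at room temperature. Compounds were pinned during FDSS kinetic reading; agonist 54-4 at EC80 (4 uM final) then added.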
Active calls of the source: *; ? = inconclusive; / = no result given; & = joins results of further samples; [ ] = dose if it differs, or a comment. Not a hit list; 1% or so of the library scored in one or more.

molecule,PINK1 expr mod,Six1-Eya2 blk,D2 agonist,D2 potentiator,TRPML1 agonist,TRPML1 inh
COc1ccc(C(=O)Nc2nnc(SCc3cc(=O)c4cccc(F)c4[nH]3)s2)cc1,17.3%,/,/,/,2.4,23.6
O=C1NC(=O)/C(=C\c2cn(Cc3ccccc3F)c3ccccc23)N1,5.7%,-5.7,-1.2,-9.3,-0.9,12.5
CCOC(=O)N1CCN(C(=O)c2cn(C)c3ccc(S(=O)(=O)N(C)C4CCCCC4)cc3c2=O)CC1,0.2%,1.7,-0.1,-3.2,4.4,10.7
Cc1ccc(C(=O)OC(C)C(=O)NC2CCCCC2C)cc1S(=O)(=O)N1CCOCC1 (stereo unspecified),-0.3%,-0.9,-4.4,5.9,0.7,-0.8
Cc1ccnc(NC(=O)CCC2CCCCC2)c1,2.4%[38.3 µM],1.6,0.5,-11.0,-0.9,-11.1
COc1ccc(Cl)cc1CC1(C)C(=O)Nc2c(Cl)cccc21 (stereo unspecified),-0.4%,0.6,-3.1,-2.8,-0.8,/
Cc1nn(C)c(C)c1C1Nc2ccccc2C(=O)N1O (stereo unspecified),-3.6%,3.8,-4.8,7.8,2.4,-12.1
CC(C)CCNC(=S)Nc1ccc([N+](=O)[O-])cc1,?,-0.7,-1.4,-13.8,0.6,5.5
CC(=O)Nc1cc(-c2cccnc2)cn2c(-c3ccc(F)cc3)cnc12,3.4%,-2.8,-2.7,1.5,-0.7,/
CC(=O)N1CCC2(CC1)NC(=O)N(c1ccccc1)N2,-0.7%,2.4,-0.2,-5.9,0.7,-0.8
CC(C)n1c(CCCO)nc2ccccc21,0.3%[38.3 µM],4.6,-0.2,-2.2,-0.9,-7.9
CC(C)COP(=O)(c1ccc(N(C)C)cc1)C(O)c1ccccn1 (stereo unspecified),-2.6%,-4.1,-0.6,8.3,0.2,-2.2
COc1ccccc1C1SCCN1S(C)(=O)=O (stereo unspecified),-0.8%,3.3,0.3,11.6,-1.2,-10.7
Cn1c(CCNC(=O)c2ccco2)nc2cc(NS(=O)(=O)c3ccccc3)ccc21,12.5%[38.3 µM],-1.9,1.0,-3.1,-0.6,-14.5
CCCn1c(=O)c2sccc2n2c(CCCC(=O)N3CCN(c4ccccc4)CC3)nnc12,1.3%,/,/,/,1.1,28.6
COc1ccc(C2N=C(N)N=C(N)N2c2ccccc2)cc1OC (stereo unspecified),-0.4%[38.3 µM],-0.2,-2.5,-9.6,-0.5,-22.7
NS(=O)(=O)c1ccc(CNC(=O)Cn2nc(C(F)F)cc2C(F)F)cc1,0.3%,-2.4,-2.6,-0.5,-0.8,5.9
O=C(O)/C=C/c1ccc(-n2ccnc2)cc1,2.7%,5.8,0.0,0.0,/,/
Cc1nn(C)cc1/C=N/NC(=O)c1sc2ccccc2c1Cl,0.9%,-20.1,-5.3,-17.6,0.5,8.3
C=CCn1c2ccccc2c2nnc(SCN3C(=O)c4ccccc4C3=O)nc21,0.4%,-21.8,-1.2,-26.6,2.4,-9.8
Cc1nn(-c2ccccc2)c(Cl)c1C(=O)OC(C)C(=O)Nc1ccc2c(c1)OCO2 (stereo unspecified),0.6%,-0.9,0.5,-8.3,-0.5,2.5
COc1ccc2c3c([nH]c2c1)C1CC2C(CC(O)C(OC)C2CO)CN1CC3 (stereo unspecified),1.5%,-12.0,-2.2,-18.8,/,/
O=C(CCC(=O)c1cccs1)Nc1ncccc1O,1.9%,-29.0,-1.7,26.2,-0.3,-10.7
CCc1nn2c(=O)cc(COC(=O)c3cccc(NC(=O)c4ccccc4C)c3)nc2s1,1.3%,/,/,/,1.4,8.1
Cc1c(NC(=O)C(C)OC(=O)CCc2c[nH]c3ccccc23)c(=O)n(-c2ccccc2)n1C (stereo unspecified),0.9%,-0.5,0.5,-15.3,-0.2,-2.3
Nc1ncnc2[nH]c(=S)[nH]c12,-0.1%,-18.4,-4.8,-5.3,0.7,-1.1
CC(C)CC(=O)Nc1c2c(nn1-c1ccc([N+](=O)[O-])cc1)CS(=O)(=O)C2,-0.7%,0.6,3.7,5.1,0.9,17.9
CCc1ccc(C(O)c2ncc(-c3ccccc3F)[nH]2)cc1 (stereo unspecified),5.5%,-3.5,-4.8,-14.4,1.9,-6.8
CCN(CC(=O)Nc1ccc(NC(C)=O)cc1)C(=O)c1ccc(COc2ccc(C(C)(C)C)cc2)cc1,18.6%,-9.0,0.6,-2.8,-0.6,-4.1
COc1ccc(/C=C2/N=C3CCCCCN3C2=O)cc1,1.5%,-6.7,1.2,-2.6,9.9,-2.0
O=C(CSC1=NS(=O)(=O)c2cc(Cl)ccc2N1)Nc1ccccc1F,-0.6%,5.2,-0.9,-13.9,0.2,-18.4
O=C(Cn1sc2ccccc2c1=O)N1CCN(C(=O)c2ccco2)CC1,0.8%,2.4,0.4,2.5,0.5,3.1
CC(=O)NC(CC(=O)NCCN1C(=O)S/C(=C\c2ccccc2)C1=O)c1ccccc1 (stereo unspecified),-0.6%,-0.5,-2.3,-11.7,0.7,34.7
CCC1CCCCN1S(=O)(=O)c1ccc2c(c1)CCN2C(=O)C1CCC1 (stereo unspecified),0.4%,-0.6,-0.9,12.7,1.4,8.0
COc1ccc(C2CC(=O)N(CC(=O)Nc3ccc(C)c(Cl)c3)c3ccccc3S2)cc1OC (stereo unspecified),2.9%,/,/,/,2.0,-1.1
Cc1ccccc1NC(=O)c1ccc2nccnc2c1,-0.4%,-8.6,-2.5,2.2,-0.2,-14.8
CC(C)CN(C(=O)c1cc(=O)[nH]c2ccccc12)c1c(N)n(Cc2ccccc2)c(=O)[nH]c1=O,0.6%,8.1,-0.5,-2.7,0.6,17.8
O=C(CSc1oc(-c2ccco2)nc1S(=O)(=O)c1ccccc1)NCC1CCCO1 (stereo unspecified),1.4%,0.0,-2.7,-10.1,0.0,-8.1
O=C(CSc1nnnn1-c1ccc2c(c1)CCC2)Nc1ccc2c(c1)OCCO2,-1.6%[38.3 µM],-14.3,1.2,-2.2,-0.6,2.6
O=C(NNC(=S)Nc1ccccc1Cl)c1ccncc1,-0.3%,10.0,2.6,-17.5,0.9,-25.7
C[c-]1[c-](C)[c-](C)[c-](C)[c-]1C.[Fe].c1cc2nccc(N3CCCC3)[c-]2c1 (stereo unspecified),2.0%&2.8%,-13.2&-3.4,-1.0&-1.1,-2.1&-4.3,-0.3&0.0,-15.6&4.9
Cc1cccc(/C(N)=N/OC(=O)c2ccccc2Cl)c1,?,27.0,6.0,5.3,0.1,-6.7
Cc1ccc(Nc2nc(N)[nH]c(=O)c2N=O)cc1,4.6%,?,8.4,-0.6,1.8,-2.8
CCCc1nnc(NC(=O)CCC(=O)N2CCN(Cc3ccc(OC)c(F)c3)CC2)s1,-1.6%,1.2,3.3,-19.9,0.0,18.3
CCN1CCN(C(=O)Cn2nc(C)c3sc4ccccc4c3c2=O)CC1,-0.3%,4.9,-3.3,-8.0,-0.2,1.8
Cc1ccc(C(=O)OC(C)C(=O)c2cc(C)c(C)cc2C)o1 (stereo unspecified),2.0%,12.0,6.3,-3.1,5.0,-2.0
CC1(C)Cc2c(ccc3ccccc23)/C(=C/C(=O)N2CCCCC2)N1,?,0.0,-3.7,-5.9,2.1,27.7
Cn1c(SCC(=O)N2CCOCC2)nnc1-c1ccco1,0.1%,0.0,-5.2,0.7,-1.3,-14.3
COc1cc(C2NCCC(=O)C2(C)C)cc(OC)c1OC (stereo unspecified),-0.2%,10.4,-5.8,-8.0,0.1,31.4
Cc1ccc(S(=O)(=O)CCC(=O)OCC(=O)N(C)CC(=O)Nc2ccc(F)cc2)cc1,0.4%,8.8,0.1,13.3,0.8,-18.3
Cc1ccc(C(C)C)c(OCC(=O)Nn2c(C)nc3ccccc3c2=O)c1,1.3%,-16.8,-1.5,-6.2,-0.7,2.6
CNc1ncnc(Sc2nc(N)nc3nc[nH]c23)c1[N+](=O)[O-],-1.1%,-7.6,0.0,-12.1,-0.3,22.2
Cc1ccc(NC(=O)c2cc(NC(=O)c3ccco3)ccc2N2CCOCC2)cc1,-0.9%,-1.1,-1.3,-21.6,1.3,-7.8
CC(C)NC(=O)N(C)C[C@H]1Oc2ccc(NS(=O)(=O)c3ccccc3)cc2C(=O)N([C@H](C)CO)C[C@H]1C,2.1%,18.2,-0.7,-0.2,-0.1,23.0
COc1cc(C(c2sc3ncnn3c2O)N2CCN(c3ccccc3F)CC2)cc(OC)c1OC (stereo unspecified),1.6%,-12.8,-1.1,-8.0,0.2,3.3
O=C(CNC(=O)c1ccccc1)OCc1cc(=O)n2nc(C3CC3)sc2n1,2.1%,/,/,/,0.2,5.9
CCN1CCCC1CNC(=O)c1cc(OC)c(OC)c(OC)c1 (stereo unspecified),-0.9%,3.4,0.3,-37.1,2.9,-1.8
Cc1cccc(CSCCNC(=S)Nc2ccccc2)c1,-1.0%,-6.2,-3.4,-14.1,0.8,-28.0
CCOc1ccc(-c2nnn(CC(=O)NCc3cccs3)n2)cc1,-0.2%[38.3 µM],6.5,1.6,-1.2,0.1,8.4
CC(NC(=O)c1ccc(N2Cc3ccccc3Oc3ncccc32)s1)c1ccccc1 (stereo unspecified),-0.3%,/,/,/,-0.5,5.7

(more compounds)
molecule,PINK1 expr mod,Six1-Eya2 blk,D2 agonist,D2 potentiator,TRPML1 agonist,TRPML1 inh
Cc1ccc([N+](=O)[O-])cc1S(=O)(=O)NCc1cccnc1,-1.4%,5.3,-6.7,-7.7,-0.1,25.7
COc1ccc(-c2nc(SCC(=O)NCC3CCCO3)c(-c3ccc(Cl)cc3)[nH]2)cc1 (stereo unspecified),-2.0%,/,/,/,2.8,-15.1
O=C(O)c1ccc2c(c1)S(=O)(=O)c1cc(N3CCN(c4cnccn4)CC3)ccc1C2=O,1.0%,-14.0,-3.2,/,/,/
CC(C)N(C1=CC(=O)OC12CCCCC2)C(C)C,2.1%,1.7,-0.4,-8.4,0.0,8.5
CC(C)CNC(=O)c1ccccc1Oc1ccccc1,-0.2%,16.6,-2.0,-17.1,1.1,-23.5
O=S(=O)(Nc1c(F)cccc1F)c1ccc2c(c1)OCCO2,2.0%&-0.5%,11.3,-3.1,-5.6,0.8&0.7,15.6&-4.0
COc1ccccc1N1CCN(Cc2cc3c(cc2[N+](=O)[O-])OCO3)CC1,3.3%,-18.7,-6.0,-3.4,1.5,44.3
O=C(COC(=O)c1ccc([N+](=O)[O-])o1)Nc1ccc2c(c1)OCO2,1.9%,-12.2,5.4,18.4,-0.3,15.1
O=C(CCSc1nnc(-c2ccco2)o1)Nc1ccc(Cl)cc1,3.7%,-3.5,0.8,-23.6,1.9,0.2
